# H5N1 CPE: antiviral screen in MDCK cells, H5N1 avian flu; cytopathic effect, luminescence, 72 h; active compounds read high; no value below 0 was filed and about half of the inactive calls have no number; reference of the scale not given here; inhibition, % at 50 µM; 0.07% of 96,000 active; in the data active means inhibition above about 25%
# Active calls of the source: *; i = inactive. Not all compounds are listed. The share of hits here may be higher or lower than overall.
canonical_smiles	H5N1 CPE
COC(=O)c1sc(S(=O)(=O)N2CCCCC2)c(C(=O)OC)c1C	0.8
S=C(NCc1ccccc1)NCC1COc2ccccc2O1 (stereo unspecified)	i
O=C(Cn1c(C(F)(F)F)nc2ccccc21)c1ccc(F)cc1	0.1
c1ccc(-n2c(SCC3CCCCO3)nnc2-c2cccs2)cc1 (stereo unspecified)	1.6
CCc1ccc(/C=N/NC(=S)NCCc2ccccc2)cc1	i
CCN(CC)C(=O)C1=C(C)Nc2nc3ccccc3n2C1c1cccc(OC)c1 (stereo unspecified)	i
Cc1cc(-c2ccccc2)nn1-c1nc2c(c(=O)[nH]c(=O)n2C)n1C	1.3
CCn1c(SCC(=O)Nc2nc3ccc(OC)cc3s2)nnc1-c1ccoc1C	0.1
O=C(NCCCN1CCOCC1)c1ccc(CS(=O)(=O)c2ccc(Br)cc2)o1	i
Cc1cc(C)cc(Oc2ccccc2/C=C\C(=O)O)c1	i
CCOc1ccc(S(=O)(=O)NCc2csc(C)n2)cc1	0.1
O=C(c1ccc(S(=O)(=O)NCC2CCCO2)cc1)N1CCc2ccccc21 (stereo unspecified)	i
CCCc1nnc(SCCSc2nnc(CCC)n2N)n1N	0.1
Clc1ccc(/C=N/Nc2nnc(-c3ncc[nH]3)c3ccccc23)cc1	0.4
COCc1cc(C)nc(N2CCOCC2)c1C#N	0.5
Cc1ccc(SCc2c(-c3ccccc3)nn(C)c2Cl)cc1	i
COC(=O)c1ccc(CSc2nnc(NCc3ccccc3)s2)o1	1.5
CCCC(=O)N=C1SC2CS(=O)(=O)CC2N1c1ccc(CC)cc1 (stereo unspecified)	0.7
COc1ccc(-c2nsc3c(N4CCCC4)ncnc23)cc1	1.0
CCc1c(C(C)S(=O)(=O)c2ccc(C)cc2)[nH]c(=O)n1-c1ccc(C)cc1 (stereo unspecified)	i
O=C(NC(=S)NNC(=O)c1cccs1)c1ccco1	0.7
O=C(Cn1cnc2ccccc2c1=O)NCc1ccc2c(c1)OCO2	0.1
CCOc1ccc2nc(N3CCC(C(=O)N4CCC5(CC4)OCCO5)CC3)sc2c1	1.4
Cc1nnc2n(C3CCCCC3)c(=O)c3c4c(sc3n12)COC(C)(C)C4	2.3
CCOC(=O)c1c(CN2CCN(Cc3ccccc3)CC2)n(C)c2cc(Br)c(OC)cc12	i
Cc1ccc(NC(=O)C2CCCN(S(=O)(=O)c3cccs3)C2)cc1 (stereo unspecified)	2.1
CN(C)S(=O)(=O)N1CCCN(S(=O)(=O)N(C)C)CC1	i
CCOc1ccccc1N=C1SCCCN1C	0.1
CCc1cc2c(N3CCN(c4ccccc4)CC3)ncnc2s1	i
Clc1ccc(N2N=C(c3cccs3)CC2c2ccco2)cc1 (stereo unspecified)	i

canonical_smiles	H5N1 CPE
O=C(OCc1ccccc1)c1cn(-c2ccccc2)nc1-c1ccncc1	0.3
CCCCN(CC)S(=O)(=O)c1ccc(C(=O)Nc2nnc(-c3cccs3)o2)cc1	0.6
COC(C)(C)[C@]12CC(O)(c3ccccc3)ON1[C@H]1CCCCC1N2O (stereo partly specified)	0.4
CCCCCNC(=O)C(C)NS(=O)(=O)c1ccc(OC)cc1 (stereo unspecified)	0.7
COCCNC(=O)C1CCCN(c2ncccn2)C1 (stereo unspecified)	0.1
COc1ccc(OC(=O)c2cccnc2)cc1	i
O=C(O)C12C3CCCC1C32c1ccccc1 (stereo unspecified)	i
O=C(NCCCN1CCCC1=O)c1ccc2c(c1)NC(=O)c1ccccc1S2	0.6
Cc1cc(=O)n2c(ccc3ccccc32)c1C#N	0.6
COc1ccccc1CNC(=O)CN1C(=O)C(C)N(c2ccc(C)cc2)C1=O (stereo unspecified)	i
FC(F)(F)C1=NC(C(F)(F)F)=NP(N2CCOCC2)(N2CCOCC2)=N1	i
CCC(C)Sc1nc2c(cnn2-c2ccccc2)c(=O)[nH]1 (stereo unspecified)	0.5
Cc1cc2cc(C(c3nnnn3C(C)(C)C)N(Cc3ccco3)CC3CCCO3)c(=O)[nH]c2cc1C (stereo unspecified)	i
Cc1sc2ncn(CC(=O)NCCCC(=O)N3CCN(c4ccccc4)CC3)c(=O)c2c1C	i
O=C(COC(=O)c1ccccn1)Nc1ccccc1Cl	i
O=C(Cn1nnc(-c2ccc(Cl)cc2)n1)NC1CC2CCC1C2 (stereo unspecified)	i
O=C(COc1ccccc1)NC(NC(=S)Nc1ccccc1O)C(Cl)(Cl)Cl (stereo unspecified)	i
CCOC(=O)N1CCN(C(=O)CN(c2ccc(Cl)c(C(F)(F)F)c2)S(C)(=O)=O)CC1	0.6
Cc1sc2nc(C(C)C)nc(SCC(=O)NCc3ccco3)c2c1C	0.3
Cc1ccc2c(CSc3nnc(C4CC4)n3N)cc(=O)oc2c1	i
Cc1ccc(NC(=S)Nc2ncccc2C)c(C)c1	i
COc1ccc(NC(=O)C(NC(C)=O)C(=O)NCc2ccccc2)cc1 (stereo unspecified)	i
c1coc(-c2nnc(SCc3cn4ccccc4n3)o2)c1	1.3
O=C(c1cc(-c2cccs2)on1)N1CCc2ccccc2C1	i
COc1ccc(C2N=C(c3ccccc3)C(C)(C)N2O)cc1 (stereo unspecified)	1.7
COc1cc(C=O)ccc1OCCOCCOc1cc(C)ccc1Cl	i
O=C(CN1CCN(Cc2cccc(Cl)c2)C1=O)N1CCC2(CC1)OCCO2	i
c1nnn(C23CC4CC(CC(C4)C2)C3)n1	1.6
O=C(c1ccco1)N1CCN=C1SCc1cccc(Cl)c1	0.5
O=C(c1ccc(CN2CCOCC2)cc1)N1CCN(c2ccccc2F)CC1	0.6

canonical_smiles	H5N1 CPE
COC(=O)c1ccccc1NC(=O)C1CCN(S(C)(=O)=O)CC1	i
CCOC(=O)c1c(C)nn(Cc2ccccc2)c1N	0.3
Cc1cccc(NC(=S)NC2CC3CCCC(C2)N3Cc2cccs2)c1C (stereo unspecified)	7.9
OC1CCCN(c2c3c(nc4cc(-c5cccc(Cl)c5)nn24)CCC3)C1 (stereo unspecified)	6.8
Cc1ccc(C)c(NC(=O)C2CC(O)CN2C(=O)OC(C)(C)C)c1 (stereo unspecified)	0.1
Cc1ccc(NC(=O)CSc2nnc(Cn3c(=O)sc4ccccc43)n2C)cc1	0.3
CC(C)(C)n1nnnc1C(c1cccc(C#N)c1)N1CCCc2ccccc21 (stereo unspecified)	1.6
O=C(C1CCN(S(=O)(=O)N2CCC3(CC2)OCCO3)CC1)N1CCOCC1	0.5
CN1CCN(Cc2cc(COCc3ccccc3)c3cccnc3c2O)CC1	i
Cc1ccc(-c2nnn(CC(=O)N(CC3CCCO3)C(C(=O)NC3CCCCC3)c3ccc(F)cc3)n2)o1 (stereo unspecified)	i
CC(=O)N1CCc2cc(S(=O)(=O)NC(CC(C)C)C(=O)Nc3cc(C)ccn3)ccc21 (stereo unspecified)	0.4
CCCC(=O)C1=C(N(C)c2ccccc2)CC(C)(C)C(C(=O)OC)C1=O (stereo unspecified)	0.1
Cc1cc(C)n(-c2nc(NCCO)c3c4c(sc3n2)CCCC4)n1	17.1
COc1cc(/C=N/n2nnnc2N)ccc1O	1.8
OC(Cc1ccccc1)(c1ccccc1)C1CN2CCC1CC2 (stereo unspecified)	i
CC(=O)Nc1ccc(N(C)S(C)(=O)=O)cc1	0.3
O=C1Nc2cc(Cl)c(Cl)cc2N(O)N1c1ccc(Cl)c(Cl)c1	i
CCOc1cc(NS(=O)(=O)c2ccccc2)c(OCC)cc1NC(=O)c1ccco1	0.5
N/C(=N\OC(=O)COc1ccc2ccccc2c1)c1ccccn1	i
CCn1c(COc2ccc(=O)n(-c3ccccc3)n2)nnc1SCc1cccc(OC)c1	0.3
CCc1cc2cccc(C)c2nc1SCC(=O)NNC(=O)c1ccco1	0.4
O=C(CCS(=O)(=O)c1ccc(Br)s1)N1CCc2ccccc21	0.9
Cc1ccc(N(C(C)C(=O)Nc2ccc3c(c2)OCO3)S(C)(=O)=O)cc1 (stereo unspecified)	0.3
CCOC(=O)c1ccc(CS(=O)c2ccc(Cl)cc2)o1 (stereo unspecified)	1.9
C/C(=C\C(=O)c1cccnc1)Nc1ccc(O)cc1	i
O=C(c1cc2ccccc2c(=O)o1)N1CCCc2ccccc21	0.9
Cc1ccc(-c2nnc3ccc(SC(C)C(=O)O)nn23)cc1 (stereo unspecified)	1.3
CCOC(=O)C1(Nc2nccs2)Sc2ccccc2NC1=O (stereo unspecified)	0.3
CCCCNC(=O)C1CCN(Cc2ccccn2)CC1	0.0
O=C(N/N=C/c1ccc(O)cc1)/C(=C/c1ccc([N+](=O)[O-])cc1)NC(=O)c1ccccc1	0.6

canonical_smiles	H5N1 CPE
O=C1CN(C(=O)CSc2nnc(C3CC3)n2-c2ccccc2)c2ccccc2N1	i
Cc1ccc(/C=N/NC(=O)C2CCN(Cc3ccc(F)cc3Cl)CC2)o1	1.2
CCC(C)NC(=O)c1cnn2c1NC(c1ccc3c(c1)OCO3)CC2C(F)(F)F (stereo unspecified)	i
Cc1ccc2[nH]c(=O)c(CN(CC3CCCO3)C(=O)c3ccncc3)cc2c1 (stereo unspecified)	i
O=C(Nc1ccc2oc(-c3ccccc3)nc2c1)c1ccc2c(c1)OCCO2	i
Cc1cc(C)cc(-n2c(=O)c3sccc3n(CC(=O)NCc3ccco3)c2=O)c1	0.1
O=C(O)c1ccc2c(c1)N(Cc1cccc(F)c1)C(=O)CS2	i
COc1ccc(NC(=O)C2CC(=O)n3cnnc3S2)cc1 (stereo unspecified)	i
Cc1cc(C)c(S(=O)(=O)N2CCCCC2)c(C)c1N(C)S(=O)(=O)c1ccccc1	2.9
COc1ccc(NC(=O)Nc2ncn(Cc3cccc(C(F)(F)F)c3)n2)cc1OC	i
CCOC(=O)c1[nH]c2ccc(OC)cc2c1NC(=O)c1nonc1C	i
Cc1ccc(O)c(-c2cc(C(=O)Nc3ccc(S(=O)(=O)N4CC(C)OC(C)C4)cc3)[nH]n2)c1 (stereo unspecified)	2.0
COc1cc(Sc2ccc(C)cc2)c(OC)cc1N	i
CC(NC(=O)C1CCC1)c1ccc2c(c1)OCO2 (stereo unspecified)	i
CCOc1ccc(N2CC(C(=O)NCc3ccc(F)cc3)CC2=O)cc1 (stereo unspecified)	i
C=CCSC1=N/C(=C\c2ccc(C)o2)C(=O)S1	0.8
Cc1cc(C)c(NC(=O)CS(=O)CC(=O)NCC2CCCO2)c(C)c1 (stereo unspecified)	0.2
N#CC1=C(N)NC(SCc2ccccc2)=C(C#N)C12CCCCC2	1.4
CCNc1nc(NCC)nc(Nn2cnnc2)n1	0.8
FC(F)(F)c1ccccc1Nc1nccs1	0.4
CC1CCN(S(=O)(=O)c2ccc(NC(=O)CN3CCCC(C)C3)cc2)CC1 (stereo unspecified)	i
Cc1ccc(N2C(=O)c3ccccc3C2Nc2cccnc2)nc1 (stereo unspecified)	0.2
CCCCCCCCCn1cc(C(C)=O)c(=O)[nH]c1=O	0.2
COc1ccc(CN(Cc2cccnc2)C(=S)NCCc2ccccc2)cc1OC	0.1
COc1ccc(-c2cc(CNC(=O)CN3CCN(C)CC3)on2)cc1	0.6
Cc1ccc2nc3c(cc(C(=O)NCC4CCCO4)n3C)c(=O)n2c1 (stereo unspecified)	i
Cc1cc(O)cc(O)c1C(=O)Cc1cnn(-c2ccccc2)c1	0.0
Cc1occc1C(=O)Nc1c(F)c(F)c(F)c(F)c1F	0.2
C=CCn1c(CCNC(=O)c2ccc(Cl)c(Cl)c2)nnc1SCCOc1ccc(OC)cc1	i
COc1ccc(C(=O)NC2CCN(C(=S)Nc3cccc(C)c3C)CC2)cc1	i

# Gathered by group, those above with a COOH group
canonical_smiles	H5N1 CPE
Cc1cc(C)cc(Oc2ccccc2/C=C\C(=O)O)c1	i
O=C(O)C12C3CCCC1C32c1ccccc1 (stereo unspecified)	i
Cc1ccc(-c2nnc3ccc(SC(C)C(=O)O)nn23)cc1 (stereo unspecified)	1.3
O=C(O)c1ccc2c(c1)N(Cc1cccc(F)c1)C(=O)CS2	i

# (further entries)
canonical_smiles	H5N1 CPE
O=C(Nc1nnc(/N=C/c2ccco2)s1)c1ccc(F)cc1	0.4
CCN(CC)CCOc1ccc2nc(N(C)C)sc2c1	i
Clc1ccc(-c2nnc(Sc3nc4ccccc4o3)c3ccccc23)cc1	9.2
Cc1occc1-c1nnc(SCC(=O)Nc2ccccc2N2CCCCC2)n1C	i
Cc1cc2ccccc2c(=O)n1CC(=O)NCC1COc2ccccc2O1 (stereo unspecified)	i
O=C(Cn1nc(-c2ccc(Cl)cc2)ccc1=O)NCCN1CCOCC1	2.0
CSc1ccc(C(C(C(=O)c2cccs2)N2CCOCC2)N2CCOCC2)cc1 (stereo unspecified)	0.3
O=C(NCc1ccco1)C1CC(=O)N(CCc2ccccc2)C1 (stereo unspecified)	0.3
CCOC(=O)c1cc(C(=O)c2cccs2)n2ccc(C(C)=O)cc12	i
CN(C)/C=C1/Nc2ccccc2C1=O	i

# Six entries out of the list, sorted by count of non-hydrogen atoms, rising:
canonical_smiles	H5N1 CPE
CN(C)/C=C1/Nc2ccccc2C1=O	i
CCN(CC)CCOc1ccc2nc(N(C)C)sc2c1	i
O=C(NCc1ccco1)C1CC(=O)N(CCc2ccccc2)C1 (stereo unspecified)	0.3
CCOC(=O)c1cc(C(=O)c2cccs2)n2ccc(C(C)=O)cc12	i
O=C(Cn1nc(-c2ccc(Cl)cc2)ccc1=O)NCCN1CCOCC1	2.0
CSc1ccc(C(C(C(=O)c2cccs2)N2CCOCC2)N2CCOCC2)cc1 (stereo unspecified)	0.3
